AGP1-GFP MLPCN: alters AGP1-GFP fluorescence in TOR pathway yeast screen | GFP response vs DMSO, % at 10 µM | actives 0.02% (n = 320,000) | S. cerevisiae AGP1-GFP multiplex flow cytometry, 3 h; GFP as percent of DMSO wells;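 active = GFP response relative to DMSO above a set limit, near screen average plus 3 SD, cut at about 150% in these data; inconclusive = fewer than 70 cells counted for the yeast strain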;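 note: median GFP channel fluorescence of the gated AGP1 strain per well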
MEP2 TOR yeast: modulators of TOR pathway MEP2-GFP in S. cerevisiae. S. cerevisiae MEP2-GFP strain, flow cytometry GFP, 3 h; 100% = DMSO control level. GFP response vs DMSO, % at 10 µM. actives 0.51% (n = 330,000);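 active = GFP response versus DMSO above a set limit, roughly screen mean plus 3 SD, cut at about 180% in these data; inconclusive = fewer than 70 cells counted for a yeast strain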;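 note: median GFP fluorescence of the barcode-gated MEP2-GFP cells per well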
RPL19A TOR yeast: yeast TOR pathway RPL19A-GFP modulation; actives 0.3% (n = 330,000); S. cerevisiae RPL19A-GFP strain, flow cytometry, 3 h; active compounds read low; percent response vs DMSO, % at 10 µM;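 active = percent response vs DMSO below 50%; inconclusive = fewer than 70 events counted for the yeast strain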;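 note: median channel GFP fluorescence of the barcoded RPL19A-GFP strain; ratio of sample median GFP to plate DMSO average so 100% = DMSO; lower means less RPL19A-GFP as with rapamycin TOR inhibition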
CIT2-GFP yeast: yeast TOR pathway CIT2-GFP modulation. S. cerevisiae CIT2-GFP strain, flow cytometry, 3 h; 100 means same as DMSO wells. GFP response vs DMSO, % at 10 µM. actives 0.065% (n = 320,000). AID 2029;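 active = GFP response relative to DMSO above a set limit, near the screen mean plus 3 SD, cut at about 150% in these data; inconclusive = Fewer than 70 cells measured for a yeast strain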;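 note: ratio of well median GFP fluorescence to mean of DMSO wells on the plate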
LAP4-GFP MLPCN: alters LAP4-GFP fluorescence in TOR pathway yeast screen; S. cerevisiae LAP4-GFP multiplex, flow cytometry GFP, 3 h; median GFP as percent of DMSO wells; GFP response vs DMSO, % at 10 µM; actives 0.34% (n = 320,000); AID 2023;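 active = GFP response vs DMSO above a set limit, about the screen mean plus 3 SD, cut at about 150% in these data; inconclusive = under 70 cell events counted for the yeast strain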
Numbers without * were called inactive; ? = inconclusive; [ ] = remark or other dose. Only part of the results is shown; count on the stated rates, not on these rows.

Abbreviations: A = AGP1-GFP MLPCN; B = MEP2 TOR yeast; C = RPL19A TOR yeast; D = CIT2-GFP yeast; E = LAP4-GFP MLPCN
CC[C@@H](C(N)=O)N1CCCC1=O
  A: 103	B: 99	C: 105	D: 109	E: 108
O=[N+]([O-])NC1=NCCN1Cc1ccc(Cl)nc1
  A: 100	B: 94	C: 115	D: 99	E: 111
CN1CC[C@]23c4c5ccc(O)c4OC2[C@H](O)C=CC3[C@H]1C5 (some centres undefined)
  A: 104	B: 102	C: 93	D: 97	E: 115
c1ccc2cc(CC3=NCCN3)ccc2c1
  A: 98	B: 106	C: 100	D: 101	E: 98
COc1cc(OC)c(OC)cc1C=O
  A: 99	B: 96	C: 96	D: 94	E: 93
COc1ccc(C(CN(C)C)C2(O)CCCCC2)cc1 (centres undefined)
  A: 101	B: 102	C: 101	D: 98	E: 104
c1ccc2c(c1)-c1cccc3cccc-2c13
  A: 102	B: 102	C: 96	D: 95	E: 108
Clc1ccc2c(c1)C(c1ccccc1Cl)=NCc1nnc(Br)n1-2
  A: 91	B: 96	C: 94	D: 92	E: 83
S=C1NCCN1
  A: 77[may fluoresce red and violet]	B: ?	C: ?	D: ?	E: ?
CNC(=O)Oc1cccc2ccccc12
  A: 113	B: 109	C: 105	D: 106	E: 106

Quoted at random: six compounds from above
Abbreviations: A = AGP1-GFP MLPCN; B = MEP2 TOR yeast; C = RPL19A TOR yeast; D = CIT2-GFP yeast; E = LAP4-GFP MLPCN
CC[C@@H](C(N)=O)N1CCCC1=O
  A: 103	B: 99	C: 105	D: 109	E: 108
O=[N+]([O-])NC1=NCCN1Cc1ccc(Cl)nc1
  A: 100	B: 94	C: 115	D: 99	E: 111
c1ccc2cc(CC3=NCCN3)ccc2c1
  A: 98	B: 106	C: 100	D: 101	E: 98
COc1ccc(C(CN(C)C)C2(O)CCCCC2)cc1 (centres undefined)
  A: 101	B: 102	C: 101	D: 98	E: 104
CN1CC[C@]23c4c5ccc(O)c4OC2[C@H](O)C=CC3[C@H]1C5 (some centres undefined)
  A: 104	B: 102	C: 93	D: 97	E: 115
CNC(=O)Oc1cccc2ccccc12
  A: 113	B: 109	C: 105	D: 106	E: 106

The list continues.
Abbreviations: A = AGP1-GFP MLPCN; B = MEP2 TOR yeast; C = RPL19A TOR yeast; D = CIT2-GFP yeast; E = LAP4-GFP MLPCN
CN(C)CCSCc1nnc2n1-c1ccc(Cl)cc1C(c1ccccc1Cl)=NC2
  A: 92	B: 98	C: 91	D: 95	E: 98
C[C@]12CCC3C(CC[C@@H]4CC(=O)CC[C@]34C)C1CC[C@@H]2O (some centres undefined)
  A: 94	B: 96	C: 95	D: 94	E: 109
C[C@]12CCC3C(CC[C@@H]4C[C@H](O)CC[C@]34C)C1CCC2=O (some centres undefined)
  A: 90	B: 87	C: 93	D: 81	E: 99
c1ccc(OCC2CO2)cc1 (centres undefined)
  A: 98	B: 96	C: 97	D: 92	E: 100

Compound activity from PubChem BioAssay.
